PMP22 txn: modulators of PMP22 gene transcription in S16 Schwann cells | S16 Pmp22-F2sN Schwann cells (luciferase reporters placed in the Pmp22 gene), FLuc/NLuc coincidence luminescence, 24 h | Potency, µM (titrated, usually from 57.5 µM), without a hit: at the highest dose activity change, negative = inhibition, most hits filed as inhibitors | 2% of 43,000 active; active = clear falling dose curves in both reporters; inconclusive = both reporters move, but less clearly or upward; inactive = either reporter flat; the % is the NLuc reporter signal; note: % is set by controls: 0 for no effect and ±100 for the full control effect; some results filed as inactive show a strong effect at the top dose
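Reporter cells (S16 Pmp22-F2sN, 500–1,000 per well) exposed to compounds for 24 h, 37C, 5% CO2; lysis with FLuc read after 10 min, then Stop&Glo and NLuc read after 10 min.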
HTT prom inh: inhibitors of huntingtin promoter activity. HEK293 HTT promoter firefly luciferase reporter (activity 0% = vehicle and -100% = no light), 24 h. Potency, µM (highest dose often 57.5 µM), for inactives: at the top dose activity change, negative = inhibition, usual class: inhibitors. 0.93% of 48,000 active; active = well fitted inhibition curve with a large enough effect; inconclusive = small, poorly fitted or top-dose-only effect; inactive = no such curve, though single readings can be large or run the other way; note: nearly all actives have a fitted effect of over 50% in size
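Firefly luciferase signal from promoter-reporter HEK293 cells was scaled between vehicle (0%) and zero RLU (-100%). Compounds were tested at final concentrations of up to 57.5 uM over 24 h at 37 degrees C. PTC124 at 50 uM final served as control inhibitor.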
* = called active by the depositor; u = inconclusive; x = no result given; & = joins results of further samples; [ ] = another dose, or the depositor's remark. Potency is the fitted concentration of half-maximal effect. Not a hit list; any-hit rate near 2.6%.

Molecule | PMP22 txn | HTT prom inh
CCCNC(=O)CSc1cn(CC(=O)N2CCCCCC2)c2ccccc12 | u | -24.6%
COc1ccc(C2=NS(=O)(=O)N(C)C(C(=O)NCc3ccccc3)=C2)cc1OC | u | -0.3%
CCOc1ccc(OCC)c(NC(=O)CCc2c(C)nc3c(c2C)c(=O)n(C)c(=O)n3C)c1 | -0.5% | -4.7%
COc1ccc(CCn2c(=O)c3cccnc3n(CC(=O)Nc3c(C)cccc3C)c2=O)cc1OC | 2.3% | 2.3%
OC[C@H]1O[C@@H]2O[C@H]3[C@H](O)[C@@H](O)[C@@H](O[C@H]4[C@H](O)[C@@H](O)[C@@H](O[C@H]5[C@H](O)[C@@H](O)[C@@H](O[C@H]6[C@H](O)[C@@H](O)[C@@H](O[C@H]7[C@H](O)[C@@H](O)[C@@H](O[C@H]8[C@H](O)[C@@H](O)[C@@H](O[C@H]1[C@H](O)[C@H]2O)O[C@@H]8CO)O[C@@H]7CO)O[C@@H]6CO)O[C@@H]5CO)O[C@@H]4CO)O[C@@H]3CO | x | 6.9%
COc1ccc2cc1Oc1ccc(cc1)C[C@H]1c3c(cc4c(c3Oc3cc5c(cc3OC)CCN(C)[C@@H]5C2)OCO4)CCN1C | x | -16.4%
CCOc1ccc(N(C)S(=O)(=O)c2ccc3[nH]cc(C(=O)NCc4ccccc4)c(=O)c3c2)cc1 | -3.6% | -12.0%
CCOc1ccc(NC(=O)c2cc(S(=O)(=O)N3CCCCCC3)cn2C)cc1 | -1.2% | -10.0%

The list goes on:
Molecule | PMP22 txn | HTT prom inh
COc1ccc(CCNC(=O)C2CC(=O)N(CCc3ccccc3)C2)cc1OC (centres undefined) | 9.5% | -13.1%
CN(C)CCNC(=O)C(=O)NCC(c1cccnc1)N1CCN(c2ccccc2)CC1 (centres undefined) | -0.9% | -15.0%
CCCN(Cc1cccs1)C(=O)Nc1ccc(Br)c(C)c1 | 13.2% | 28.0%
CCOC(=O)c1sc(NC(=O)c2nc(SC)ncc2Cl)c(C(=O)OCC)c1C | -7.0% | -2.5%
COc1ccc(-n2c(=O)c3sc4ccccc4c3n(CC(=O)NCc3ccccc3)c2=O)cc1 | -25.2% | -6.5%
OC(CCN1CCCCC1)(c1ccccc1)C1CC2C=CC1C2 (centres undefined) | x | 9.0%&3.1%
COc1ccc(S(=O)(=O)NCCc2nnc3ccc(SCC(=O)Nc4ccc(C(F)(F)F)cc4)nn23)cc1 | -22.4% | -22.7%
CCOc1ccc(-n2c(SCC(=O)N3CCCCC3)nc3c([nH]c4ccccc43)c2=O)cc1 | u | -6.4%

Remaining list, next part:
Molecule | PMP22 txn | HTT prom inh
CCOc1ccccc1N1CC(c2nc3ccccc3n2CCOc2ccccc2)CC1=O (centres undefined) | -4.2% | u
Cc1ccc(NC(=O)Cc2coc3c(C)c(C)ccc23)cc1Cl | -15.9% | -15.8%
CCN(CC)C(=O)c1cnn(-c2ccc(F)cc2)c1-n1cccc1 | 4.7% | u
O=C1CC(c2ccccc2)Cc2[nH]c(=O)c(-c3nc(-c4cccc(Cl)c4)cs3)cc21 (centres undefined) | -20.7% | -23.1%
COC(=O)c1c(NC(=O)CCCOc2ccc(C(C)(C)C)cc2)sc2c1C(C(=O)OC)CC2 (centres undefined) | u | u
CSc1nn(Cc2ccc(C)cc2)c(N)c1S(=O)(=O)c1ccccc1 | u | u
COc1ccc(NC(=O)c2cc3ccccc3o2)c(OC)c1 | -2.9% | 97.5%[activator]
COc1ccc(OC)c(NC(=O)c2ccc3c(c2)c(C)c(C)n3Cc2ccc(F)cc2)c1 | u | -10.5%

Next section:
Molecule | PMP22 txn | HTT prom inh
Cc1ccc(N(C)C(=O)Cn2nc(Cc3ccncc3)c3ccccc3c2=O)cc1C | u | -1.6%
Cn1c(NCCO)nc2c1c(=O)n(Cc1ccccc1Cl)c(=O)n2C | -5.5% | 4.1%
Cc1cc(C(=O)N2CCN(c3ccccc3)CC2)c2c(C)nn(-c3cccc(F)c3)c2n1 | -3.5% | -14.0%
CCCC(=O)Nc1c(C(=O)N2CCN(c3ccccc3)CC2)oc2ccccc12 | 6.4% | -24.8%
CCOC(=O)c1c(C)[nH]c(C)c1S(=O)(=O)N1CCC(C(=O)N2CCN(c3ccc(Cl)cc3)CC2)CC1 | u | u
CN(Cc1cnc2nc(N)nc(N)c2n1)c1ccc(C(=O)N[C@@H](CCC(=O)O)C(=O)O)cc1 | x | 0.0%&-32.9%
CN(C)S(=O)(=O)N(CC(=O)NCCSCc1ccc(Cl)cc1Cl)c1ccccc1 | -5.1% | u
CS(=O)(=O)CCC(C(=O)Nc1cccc(C(F)(F)F)c1)N1Cc2ccccc2C1=O (centres undefined) | -13.8% | -24.5%

More entries follow:
Molecule | PMP22 txn | HTT prom inh
COc1ccc(CCC(=O)NCc2nc3cccnc3n2Cc2ccc(C)cc2)cc1 | -15.3% | -15.5%
N#CC1=C(N)N(c2ccc(Cl)cc2)C2=C(C(=O)CCC2)C1c1cc(CN2CCOCC2)cs1 (centres undefined) | 18.5% | 0.5%
Cc1ccc(CNS(=O)(=O)c2c(C(=O)N3CCC(C)CC3)c(C)n(C)c2C)cc1 | 57.5% | -15.0%
CCOc1ccccc1Nc1cc(-c2ccccc2)nc(C)n1 | -0.9% | -15.6%
Fc1ccc(N2CCN(c3nc4ccccc4c4nc(-c5ccccc5)nn34)CC2)cc1 | -11.0% | -7.8%
Cc1ccc(CSCC(=O)NCc2ccc(F)cc2)cc1 | 16.8% | -20.3%
Cc1ccc(NS(=O)(=O)c2ccc3c4c(cccc24)C(=O)N3)c(C)c1 | -29.5% | -21.9%
Fc1ccc(N2CCN(Cc3cccn3-c3nnc(N4CCN(C5CCCCC5)CC4)s3)CC2)cc1 | -22.3% | -2.3%

Going on with the list:
Molecule | PMP22 txn | HTT prom inh
Nc1ccc(O)c(C(=O)O)c1 | x | -2.9%
Cc1ccc(-c2nc3nc(C)cc(N4CCN(c5cccc(C)c5)C(C)C4)n3n2)cc1 (centres undefined) | 6.8% | 5.6%
CCOc1ccc(-c2cc(C(=O)Nc3ccc(NC(C)=O)cc3)no2)cc1 | -18.5% | 4.5%
CSCCC(NS(=O)(=O)c1ccc2c(c1)oc(=O)n2C)C(=O)Nc1ccc(F)c(Cl)c1 (centres undefined) | 8.1% | -17.2%
Cc1ccccc1N1C(=O)c2cc(S(N)(=O)=O)c(Cl)cc2NC1C (centres undefined) | x | -8.9%&5.5%
CCc1cccc(-n2c(C)nc3c(cnn3-c3ccc(C)c(C)c3)c2=O)c1 | u | u
Cc1ccc(C)c(N2CCN(C(=O)C(C)n3nc(C)c4sc5ccccc5c4c3=O)CC2)c1 (centres undefined) | 3.9% | -4.4%
CC(C)c1cccc(OCCn2c(-c3ccc(Cl)cc3)nc3ccccc3c2=O)c1 | -10.9% | -9.4%

Continuation.
Molecule | PMP22 txn | HTT prom inh
O=c1[nH]c2cc(Br)ccc2n2cccc12 | u | 4.6%
O=C(CSc1nccn1-c1cccc(Cl)c1)Nc1cccc2ccccc12 | u | -31.8%
COc1ccc(-n2nc3cc(C)c(NC(=O)c4ccc(C)cc4C)cc3n2)cc1Cl | -12.4% | 7.4%
CC(C)CCn1c(/C=C/c2ccccc2)nc2ccccc21 | u | -14.3%
CCc1ccc(S(=O)(=O)c2nnn3c2nc(NCc2ccccc2)c2cc(Cl)ccc23)cc1 | u | -4.1%
COc1ccc2oc(-c3cccc(NC(=O)c4cc([N+](=O)[O-])ccc4N4CCOCC4)c3)nc2c1 | -25.8% | 0.9%
CSc1cccc(NC(=O)C2CCN(S(=O)(=O)c3ccc4[nH]c5c(c4c3)CCCCC5)CC2)c1 | 0.8% | u
Cc1ccc(C)c(N2CCN(c3ccc4cc(S(=O)(=O)N5CCC(C)CC5)ccc4n3)CC2)c1 | 0.5% | -8.6%

Remaining list, next part.
Results follow in this order: PMP22 txn, HTT prom inh
O=C(Nc1cc2c(cc1C(=O)c1ccccc1Br)OCCO2)c1ccccc1
  2.3%, -2.0%
Cc1ccc(CNC(=O)C2CCN(C(=O)N3CC(C)Oc4ccc(Cl)cc43)CC2)cc1 (centres undefined)
  9.6%, u
Cc1ccccc1NC(=O)Cn1c(=O)oc2cc(Br)ccc21
  -66.4%, -16.6%
CCOc1cccc2cc(S(=O)(=O)c3ccccc3F)c(=O)oc12
  u, -28.8%
Cc1ccc2oc(C(=O)Nc3c(C(=O)Nc4ccccc4)oc4ccccc34)cc(=O)c2c1
  -6.3%, -12.7%[11.5 µM]
Cc1cc(C)c(NC(=O)Cn2c(=O)n(-c3cccc(C(F)(F)F)c3)c(=O)c3c(C)c(C)sc32)c(C)c1
  -21.5%, -8.4%
COc1ccc(Nc2oc(-c3ccc(COc4ccccc4)o3)nc2C#N)cc1
  u, -9.2%
COC(=O)c1ccccc1NC(=O)c1ccc(CN2CC(=O)N3CCCCC3C2=O)cc1 (centres undefined)
  -4.6%, -22.9%
Cc1cccc(NC(=O)CSc2cn(CC(=O)N3CCCC3)c3ccccc23)c1C
  u, -17.1%
COc1ccc2c(CNCCc3cccs3)c(C(=O)O)n(Cc3ccccc3C)c2c1
  -5.8%, u
Cc1coc2cc3oc(=O)c(CC(=O)NCc4ccc(F)cc4)c(C)c3cc12
  u, -9.8%
COc1ccccc1-c1nc(CNC(=O)Nc2ccccc2)c(C)o1
  -6.4%, 0.0%
O=C(NCCc1ccc(Cl)cc1)C1CCN(Cc2cc3ccccc3n2Cc2ccccc2)CC1
  u, -27.1%
COc1cccc(Cn2nnc(C(=O)Nc3cc(C)ccc3C)c2N)c1
  u, -25.9%
CC(=O)c1ccc(N2C(=O)N(Cc3cccc(C(F)(F)F)c3)c3ccccc3S2(=O)=O)cc1
  u, u

The list goes on:
Results follow in this order: PMP22 txn, HTT prom inh
Cc1cc(C)n(-c2nc3ccccc3nc2Nc2ccc(Cl)cc2Cl)n1
  1.5%, -11.4%
CCc1ccc(NC(=O)Cn2c(=O)n(-c3ccccc3C)c(=O)c3c2c2cc(OC)ccc2n3C)cc1
  -13.5%, -25.8%
CCOC(=O)c1cnc2c(ccc3ccccc32)c1Nc1cccc(C(F)(F)F)c1
  1.7%, -15.2%
CC(C)OCc1cc(CN2CCN(c3cccc(C(F)(F)F)c3)CC2)c(O)c2ncccc12
  6.48µM*, u
Cc1nc(-n2nc(C)c(CCC(C)C)c2C)sc1C(=O)Nc1ccc(Br)cc1
  4.7%, -8.7%
CN(Cc1ccccc1)S(=O)(=O)c1ccc(-c2cnc(C3CC3)o2)cc1
  u, u
Clc1ccccc1N1CCN(c2ncnc3c2c(-c2ccccc2)cn3-c2ccccc2)CC1
  -7.0%, -28.0%
COc1ccc(F)cc1S(=O)(=O)Nc1ccc2c(c1)CCCN2C(=O)c1cccs1
  u, -26.9%
O=C(NCC(c1cccnc1)N1CCOCC1)C(=O)Nc1cccc(Cl)c1 (centres undefined)
  -23.2%, -12.3%
COC(=O)c1ccccc1NC(=O)c1nc(S(=O)(=O)Cc2ccccc2F)ncc1Cl
  u, -7.6%
COc1ccc(Nc2nc3ccccc3c3nnc(C)n23)cc1Cl
  -18.6%, 2.3%
CCCCN(CCCNC(=O)c1cc(Nc2ccccc2OC)nc2ccccc12)c1ccccc1
  -9.7%, -10.6%
Cc1cccc(N2CCN(S(=O)(=O)c3ccc4c(c3)CC(=O)N4C)CC2)c1C
  -23.5%, u
CCOC(=O)c1cccnc1SCC(=O)N(CC)c1cccc(C)c1
  u, -26.2%
CCc1nc(-c2cc(S(=O)(=O)N3CCN(c4ccccc4OC)CC3)ccc2OC)no1
  -4.2%, -21.1%

4 compounds drawn at random from the list so far:
Results follow in this order: PMP22 txn, HTT prom inh
CN(Cc1ccccc1)S(=O)(=O)c1ccc(-c2cnc(C3CC3)o2)cc1
  u, u
CCOC(=O)c1cccnc1SCC(=O)N(CC)c1cccc(C)c1
  u, -26.2%
CCOC(=O)c1cnc2c(ccc3ccccc32)c1Nc1cccc(C(F)(F)F)c1
  1.7%, -15.2%
Cc1cc(C)n(-c2nc3ccccc3nc2Nc2ccc(Cl)cc2Cl)n1
  1.5%, -11.4%

The list goes on:
Results follow in this order: PMP22 txn, HTT prom inh
CCOC(=O)c1c(NC(=O)COc2ccccc2F)sc2c1CCCC2
  -26.4%, 0.0%
COc1ccc(CNC(=O)C2=CC(c3ccc(OC)c(OC)c3)=NS(=O)(=O)N2C)cc1
  13.4%, -16.3%
CCCCN(C)C(=O)C1CCC(Cn2c(=O)[nH]c3ccsc3c2=O)CC1 (centres undefined)
  12.2%, -9.7%
O=C(Nc1nc(-c2ccc(Br)cc2)ns1)c1ccccc1F
  12.2%, -8.7%
CCOc1cc(CNS(=O)(=O)c2ccc3c(c2)C(C)(C)C(=O)N3)cc(OCC)c1OCC
  1.9%, 2.0%
CCN(CC)c1ccc(NC(=O)C2CCN(S(=O)(=O)c3ccc4c(c3)oc(=O)n4C)CC2)c(C)c1
  -22.5%, -18.7%
COc1ccc(-c2nc(SCC(=O)c3ccc(Br)cc3)n[nH]2)cc1
  -79.7%, -17.3%
COc1ccc(NC(=O)c2cc3c(=O)[nH]c4ccccc4c3n2C)cc1Cl
  -0.5%, -1.5%
Cc1cccc(C)c1-n1ncc(C(=O)Nc2ccc3c(c2)OCCO3)c1C1CCN(C(=O)OC(C)(C)C)CC1
  u, u

High-throughput results (PubChem BioAssay)
